gsp antag: qHTS for Antagonists of gsp, the Etiologic Mutation Responsible for Fibrous Dysplasia/McCune-Albright Syndrome: qHTS | AID 624288, 2012 | gsp-mutant cells, cAMP HTRF, 30 min; control for the full effect not named in the record | Potency, µM (series often up to 76.9 µM), for inactives: at the top dose activity change, negative = inhibition, usual class: inhibitors | 340,000 compounds, 0.4% hits; active = falling curve of any shape with a large fitted effect; inconclusive = falling curve, mostly with a smaller effect; inactive = flat or rising curve; cell line not stated here;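 note: intracellular cAMP measured with PDE inhibitor Ro 20-1724 present during compound exposure; potency is the fitted concentration of half-maximal effect; % is set by controls: 0 for no effect and ±100 for the full control effect; nearly all actives have a fitted effect of over 65% in size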
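G418-selected cells were plated in DMEM/10% FBS for 16-24 h at 37C, then treated with compounds plus the PDE inhibitor […] (300 uM solution added) for 30 min at 37C. Intracellular cAMP was measured by HTRF after 30 min lysis at room temperature.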
TRPML1 agonist: qHTS for Agonists of the Human Mucolipin Transient Receptor Potential 1 (TRPML1). Mucolipin-1 (Homo sapiens), Q9GZU1. TRPML1-expressing cells, Ca2+ dye fluorescence, FDSS; host cell line not named in the record; reference of the full effect not given here. activation, % (no concentration beside the values). 410,000 compounds, 0.12% hits; in the data active = activation above about 50%; inconclusive = about 30% to 50%; inactive = below about 30%; note: 0% is about no effect; the text of the record puts the active cut at 80%
Target sequence (Q9GZU1 whole entry, looked up): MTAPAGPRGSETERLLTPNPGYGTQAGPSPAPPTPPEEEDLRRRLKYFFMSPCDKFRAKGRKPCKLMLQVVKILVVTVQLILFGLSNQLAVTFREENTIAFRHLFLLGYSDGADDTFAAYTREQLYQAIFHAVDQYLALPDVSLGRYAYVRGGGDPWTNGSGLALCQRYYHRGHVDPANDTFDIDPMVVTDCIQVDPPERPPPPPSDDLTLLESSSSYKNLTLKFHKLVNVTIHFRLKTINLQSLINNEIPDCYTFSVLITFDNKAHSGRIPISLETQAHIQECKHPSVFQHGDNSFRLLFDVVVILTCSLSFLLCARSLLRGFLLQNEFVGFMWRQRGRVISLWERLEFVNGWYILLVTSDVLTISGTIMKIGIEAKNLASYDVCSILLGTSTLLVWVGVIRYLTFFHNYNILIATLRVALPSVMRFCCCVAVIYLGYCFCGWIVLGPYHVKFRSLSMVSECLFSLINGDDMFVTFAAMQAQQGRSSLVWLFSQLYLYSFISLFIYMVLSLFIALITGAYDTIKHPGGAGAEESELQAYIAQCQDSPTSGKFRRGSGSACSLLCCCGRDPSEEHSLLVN
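Cells: TRPML1-DL, 1X Tet inducer, ~16 h at 37 degrees C/5% CO2. Dye: ABD Ca8 no-wash + quencher, 45-90 min RT. Read: 10 s baseline, compound add, 110 s agonist phase; 54-4 EC80 (4uM final), 110 s antagonist phase.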
gsp ag: qHTS for Agonist of gsp, the Etiologic Mutation Responsible for Fibrous Dysplasia/McCune-Albright Syndrome: qHTS. gsp mutant cells, cAMP HTRF, 30 min; control for the full effect not named in the record. Potency, µM (doses to about 76.9 µM), for inactives: at the top dose activation (cAMP increase), most hits filed as activators. AID 624287, 2012. 340,000 compounds, 0.13% hits; active = well fitted activation curve with a large enough effect; inconclusive = small, poorly fitted or top-dose-only effect, or another doubt; inactive = no such curve, though single readings can be large or run the other way; cell line not stated here;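 note: phosphodiesterase inhibitor Ro 20-1724 added with compounds to block cAMP breakdown; potency is the fitted concentration of half-maximal effect; nearly all actives have a fitted effect of over 60% in size; about a fifth of the inactives were tested at one dose only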
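Cells stably selected in G418 were plated at 2000/well, grown 16-24 hr, then given compounds in DMSO with the PDE inhibitor […] (300 uM solution added) for 30 min at 37C; cAMP was read by HTRF.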
TRPML1 blocker: qHTS for Inhibitors of the Human Mucolipin Transient Receptor Potential 1 (TRPML1) | 390,000 compounds, 0.02% hits | TRPML1-inducible cells, Ca2+ dye fluorescence, FDSS; active compounds read low; inhibition of EC80 agonist-evoked calcium signal | activity change, negative = inhibition, % (concentration not given with the values) | Mucolipin-1 (Homo sapiens), Q9GZU1 | AID 624415, 2012; in the data active means activity change below about -50%; inconclusive means about -30% to -50%; inactive means above about -30%;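 note: stimulus is agonist 54-4 at its EC80 concentration; % is set by controls: 0 for no effect and ±100 for the full control effect; the text of the record puts the active cut at -80%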
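Calcium fluorescence in TRPML1-DL cells induced overnight with Tet: a 110 s read after compound pin addition, then a 110 s antagonist read after challenge with 54-4 at 4 uM final (EC80).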
ClpP mod: qHTS Assay for Activators of ClpP; Potency, µM (doses to about 57.5 µM), for the others: top-dose activity change, negative = active; ATP-dependent Clp protease proteolytic subunit (Bacillus subtilis (strain 168)), P80244; 340,000 compounds, 1.9% hits; purified B. subtilis ClpP, FRET peptide cleavage, 20 min; active = well fitted falling curve with a large enough effect; inconclusive = small, poorly fitted or top-dose-only effect; inactive = no such curve, though single readings can be large or run the other way; note: potency is the fitted concentration of half-maximal effect; the source files actives as falling curves though it sought activators and does not explain the sign; nearly all actives have a fitted effect of over 65% in size; many hits overshoot -100%
Target sequence (P80244 whole entry, looked up): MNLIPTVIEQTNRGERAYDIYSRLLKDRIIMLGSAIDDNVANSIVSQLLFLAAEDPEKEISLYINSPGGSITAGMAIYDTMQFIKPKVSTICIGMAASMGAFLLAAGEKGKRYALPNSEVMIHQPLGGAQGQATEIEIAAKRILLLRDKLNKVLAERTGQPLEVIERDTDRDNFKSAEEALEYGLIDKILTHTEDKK
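ClpP 10 microg/mL final, pH 8 Tris/KCl buffer with BSA, glycerol, Tween-20; compound pinned in; FRET-FV substrate; RT 20 min; Ex320/Em430; ΔFRET vs ADEP 5.8 microM, DMSO, no enzyme.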
Menin-MLL FL inh: qHTS Assay for Inhibitors Targeting the Menin-MLL Interaction in MLL Related Leukemias: Competition With Fluorescein Labeled MLL-derived Peptide. FP activity change, % at 61.4 µM. 290,000 tested, under 10 active. Fluorescence polarization, fluorescein-MLL peptide displacement from menin; inconclusive = falling polarisation curve, or a change in total fluorescence; inactive = total fluorescence flat and polarisation flat or rising; no compound was filed as active; the % refers to the polarisation; negative = inhibition;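 note: % of control where 0% means no effect; inhibitors lower the polarisation; unlabelled MLL peptide was the positive control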
The depositor's hits bear a star; ? = inconclusive; · = no result given; [ ] = dose if it differs, or a comment.

SMILES	gsp antag	TRPML1 agonist	gsp ag	TRPML1 blocker	ClpP mod	Menin-MLL FL inh
CCOc1ccc(NC(=O)c2oc3ccccc3c2NC(=O)C2CCCCC2)cc1	·	-0.9	·	1.4	1.0%	·
CCOC(=O)c1cc(-c2ccc(OC(F)F)cc2)nc2c1c(=O)[nH]c(=O)n2C	-2.8%	-0.5	-37.1%[inhibitor]	-11.0	3.55µM*	3.5
O=c1cc(O)c2c(=O)n(Cc3ccccc3)c3ccccc3c2o1	?	1.3	-1.6%[15.4 µM]	-8.7	·	?
COCCCn1cnnc1SCC(=O)Nc1ccc(S(=O)(=O)N2CCCC2)cc1	6.2%	-0.7	-14.3%	-1.5	-11.9%	-0.5
COc1ccc2c(c1)CC(NC(=O)Nc1cc(Cl)ccc1OC)CO2 (configuration not stated)	·	2.0	·	-14.9	5.9%	·
O=C(CNC(=O)c1ccc(F)cc1)N/N=C/c1cccnc1	6.5%	-0.1	-20.6%	4.4	·	4.9
Cc1ccc(F)cc1CNC(=O)C1CCC(=O)N(C2CC2)C1 (configuration not stated)	8.8%	0.3	10.3%	6.9	-1.1%	·
CCN(CC)c1ccc(/C=N/OC(C)C(=O)Nc2ccc(C)cc2)cc1 (configuration not stated)	-1.2%	2.3	?	-1.4	28.2µM*	2.2
CC(=O)Nc1ccc(S(=O)(=O)N(C)CC(=O)NNC(=O)Cc2nc3ccccc3n2C)cc1	10.1%	-0.2	4.1%	31.1	-4.3%	·
CCOC(=O)C1CCN(C(=O)/C=C/c2ccc(OC)cc2)CC1	-9.1%	-0.3	-24.5%	-5.4	-0.6%	-0.6
CCCCn1c(/N=C/c2ccccc2NS(=O)(=O)c2ccc(C)cc2)nc2ccccc21	?	0.1	1.2%	18.6	-1.4%	1.9
O=Cc1c(N2CCN(CCO)CC2)nc2ccccn2c1=O	-0.1%	12.6	?	-0.7	·	?
COC(=O)c1cn(NC(=O)Cc2c(F)cccc2Cl)c(=O)c2ccccc12	-3.7%	-0.4	7.3%[15.4 µM]	-11.8	1.1%	1.9
c1cn(-c2ncnc3sc4c(c23)CCCC4)cn1	2.8%	1.4	13.9%	-8.2	-21.1%	-0.7
CCc1ccc([C@@H]2CC=C(C(=O)O)[C@H](c3ccc(Cl)cc3)N2S(=O)(=O)c2ccc(C)cc2)cc1	-17.2%	0.0	·	-18.6	1.4%	·
CCCOc1ncnc2c1[nH]c1ccccc12	?	-0.1	0.5%	2.9	14.1µM*	1.1
COC(=O)c1cc(C(=O)c2ccc(Cl)cc2Cl)cn1C	-0.6%	0.9	-3.3%	-2.8	3.6%	3.3
O=C(NC1CC2CCC(C1)N2Cc1ccco1)c1ccccc1 (configuration not stated)	0.9%	-0.4	-11.3%	-0.5	2.0%	-3.1
CN(C(=S)SCc1ccccc1)C1CCS(=O)(=O)C1 (configuration not stated)	-6.5%	0.8	9.8%[15.4 µM]	-5.0	·	1.3
CCOC(=O)C1CCCN(C(=O)c2cccc(NC(=O)c3nsc4ccccc34)c2)C1 (configuration not stated)	·	3.1	·	-1.3	0.8%	·
C#CCOCCOCCOCCNc1nc(OC)nc(N2CCN(C(=O)[C@H](CCC(=O)O)n3cc(C(N)CO)nn3)CC2)n1 (some centres not stated)	-0.5%	-0.2	·	-11.9	-1.8%	·
CCOC(=O)C(NC(=O)CC(C)C)(Nc1cc(C)on1)C(F)(F)F (configuration not stated)	9.5%	-0.8	76.4%	-1.7	0.2%	0.9
COc1ccc(C2=NN(C(=O)c3ccccc3)C(c3cccc([N+](=O)[O-])c3)C2)cc1 (configuration not stated)	-10.7%	3.7	-38.7%[inhibitor]	12.7	0.3%	2.2
O=C(Cn1c(-c2cccs2)cc2ccccc21)NCCCN1CCN(c2cccc(Cl)c2)CC1	·	0.5	·	21.2	25.1µM*	·
CC1=CC(C)(C)N(C(=O)CN2C(=O)CCC2=O)c2ccc(C)cc21	-0.9%	0.3	-9.3%[15.4 µM]	4.5	·	-5.7
SMILES	gsp antag	TRPML1 agonist	gsp ag	TRPML1 blocker	ClpP mod	Menin-MLL FL inh
O=S(=O)(/N=C(/Nc1cccnc1)c1ccccc1)c1ccc(F)cc1F	10.2%	0.1	-4.6%	18.1	-1.1%	·
CCN(CC)C1CC(=O)N(c2cccc(Cl)c2)C1=O (configuration not stated)	2.9%	0.8	-0.9%	-21.4	·	-0.9
COc1ccccc1CNc1nc2c(S(=O)(=O)c3ccc(C)c(C)c3)nnn2c2ccc(Cl)cc12	·	-0.8	·	-16.4	?	·
O=C(NCCO)c1ccc2[nH]c3ccccc3c2c1	6.1%	0.0	6.8%	-3.5	25.1µM*	2.3
CSc1ccc(S(=O)(=O)N2CCC(C(=O)Nc3ccccc3C(F)(F)F)CC2)cc1	-8.0%	3.4	2.6%	-12.2	·	7.3
COCCN1CCn2c(nc3cc(NC(=O)NC4CCCCC4)ccc32)C1	8.8%	0.4	19.7%	-9.8	?	-1.8
FC(F)Oc1ccc(-n2cc(-c3ccc(Cl)cc3)[n+]3c2CCCCC3)cc1	9.6%	0.1	13.0%[15.4 µM]	18.8	0.2%	-16.0
CC(NC(=O)C(NS(=O)(=O)c1cccc2nsnc12)C(C)C)c1ccccc1 (configuration not stated)	0.5%	-0.9	19.6%	-2.0	0.4%	-0.4
CC(=O)c1ccc(NC(=O)c2cccc(NC(=O)N3CCSc4ncccc43)c2)cc1	·	1.3	·	25.0	-25.5%	·
O=C(NCc1cccs1)Nc1cc(Cl)ccc1Cl	-1.0%	-0.3	-7.4%[15.4 µM]	10.1	·	-2.1
COc1ccc(S(=O)(=O)Nc2ccc(-c3ccc(N4CCCC4)nn3)cc2)cc1C	-18.7%	0.3	6.1%[15.4 µM]	7.2	-1.9%	·
COc1ccccc1C(=O)N=c1sc2c(C)ccc(OC)c2n1C	-24.4%	2.4	16.6%	1.4	4.2%	4.0
CC(C)Oc1ccc(CCC(=O)NNC(=S)Nc2ccccc2)cc1	1.4%	1.9	7.8%[15.4 µM]	2.1	·	-0.4
Cc1c(C(=O)N2CCC(C(N)=O)CC2)sc(N)c1C#N	11.3%	-0.3	-54.0%[inhibitor]	5.2	-0.6%	-0.4
CCCc1[nH]nc2c1C(c1ccc(OC)cc1OC)C(C#N)=C(N)O2 (configuration not stated)	6.2%	10.2	?	-2.3	-0.2%	0.6
COc1ccc(CNC(=O)CN2C(=O)CSc3ccc(S(=O)(=O)N4CCCCC4)cc32)cc1	-4.5%	-1.2	2.9%	-6.7	0.8%	4.7
O=[N+]([O-])c1c(-c2cn[nH]c2)n[nH]c1-c1cn[nH]c1	12.7%	-0.7	9.9%	-7.5	·	-1.4
CCC(=O)Nc1ccc(OCc2nnc3c4ccccc4c(C)nn23)cc1	15.7%	-0.2	-0.8%[15.4 µM]	17.8	·	0.4
CC(=O)Nc1ccc(C(=O)COC(=O)C2CC2C)c(F)c1 (configuration not stated)	-9.1%	-0.3	-9.3%[15.4 µM]	-7.2	·	·
CNC(=O)C[C@H]1C(=O)N(C2CCCCC2)C[C@@H]1CSC	·	-0.3	-11.9%	-2.6	-0.1%	·
Cc1ccc(C(=O)/C=C/NCc2ccc(F)cc2)cc1	-7.3%	1.7	22.7%	-4.6	-3.1%	-1.5
COc1ccc2cc(C#N)c(NC(C)C)nc2c1	2.9%	4.6	-10.4%	-11.0	22.4µM*	4.2
COc1ccccc1CNC(=O)C1CCN(c2nn3c(=O)cc(C)nc3s2)CC1	·	-0.2	·	-4.0	-3.2%	·
O=C(NC1CC(=O)N(c2ccc(F)cc2)C1)c1ccc(S(=O)(=O)N2CCOCC2)cc1 (configuration not stated)	·	-0.1	·	-9.8	1.2%	·
COc1ccc(-c2onc3ccc(C(C)=O)cc23)cc1	1.7%	12.1	?	-2.9	-25.7%	?
SMILES	gsp antag	TRPML1 agonist	gsp ag	TRPML1 blocker	ClpP mod	Menin-MLL FL inh
Brc1cccc(-c2nc3ccc(Br)cn3c2Cc2ccccc2)c1	·	0.2	·	3.5	-1.9%	·
O=C(NCC1CCCO1)C1CC(=O)N(c2cccc(Cl)c2)C1 (configuration not stated)	-15.5%	-0.3	-3.2%[15.4 µM]	4.8	·	-2.0
Cn1ccs/c1=N\C(=O)Nc1cccc(Cl)c1	13.7%	5.6	?	37.9	-1.0%	-0.4
CCC1CCCCN1C(=O)CSc1nnc(CNC(=O)c2ccco2)o1 (configuration not stated)	8.2%	-1.2	0.0%	10.4	-1.2%	1.8
COc1cc2c(cc1OC)C(COc1ccc(F)cc1)N(C(C)=O)CC2 (configuration not stated)	-11.5%	1.1	19.2%	19.5	0.4%	-1.4
O=C(/C(=C/O)N=Nc1ccccc1Cl)c1ccccc1	-28.7%	0.0	-8.7%[15.4 µM]	5.4	·	-2.9
COC(=O)c1ccccc1NC(=O)c1sc(=S)n(C)c1N	4.2%	-0.5	?	-14.0	-1.1%	2.5
CC(=O)c1cccc(NC(=O)CCc2c(C)nc3c(-c4ccc(F)cc4)c(C)nn3c2C)c1	·	0.1	·	-20.5	-1.8%	·
CCOc1ccc(C2C(=O)N(C3CCCCCC3)CC(=O)N2Cc2ccccc2)cc1OC (configuration not stated)	·	0.2	·	1.1	-1.1%	·
COC(=O)C1=C(C)NC2=C(C(=O)c3ccccc32)C1c1ccc(-c2ccc(C(=O)O)cc2)o1 (configuration not stated)	16.7%	0.2	?	-1.8	2.9%	?
CC1=C(C(N)=O)C(c2ccc(Br)cc2)n2nc(CCCO)nc2N1 (configuration not stated)	13.6%	0.9	13.0%	0.9	-0.7%	10.7
CSc1nn(Cc2ccccc2C)c(NC(C)=O)c1S(=O)(=O)c1ccc(C)cc1	·	0.3	·	-16.8	1.7%	·
CCCOc1ccc(C(C)=O)cc1CSCCC#N	1.8%[15.4 µM]	6.8	3.6%	2.1	3.0%	4.6
O=C1c2ccccc2NC(c2cccc(F)c2)N1Cc1ccccc1 (configuration not stated)	?	2.3	12.4%	48.7	3.8%	1.3
CC(C)C(NS(=O)(=O)c1cccs1)C(=O)Nc1nc(C(C)(C)C)cs1 (configuration not stated)	2.6%	0.5	7.5%	9.5	-1.7%	3.6
COc1ccc(C)cc1NC(=O)C1CCN(S(=O)(=O)c2cc(Br)cc3c2N(C(C)=O)CC3)CC1	·	2.1	·	8.2	-2.0%	·

Rows are unselected; any-hit rate near 2.1%.
